Screens (PubChem BioAssay)
AmpC nodet inh: blocks E. coli AmpC beta-lactamase in absence of detergent; P00811; Potency, µM (series often up to 28.7 µM), without a hit: at the top dose activity change, negative = inhibition; AmpC nitrocefin hydrolysis, absorbance 480 nm, no detergent; potencies from a single point are estimates; 71,000 compounds, 1.8% hits; active = falling curve, for most hits resting on a single point; inconclusive = weak or doubtful change; inactive = flat or rising curve; also: % of control where 0% means no effect; about half of the hits show no inhibition at the top dose; a quarter of the inactives give rising signals
Target sequence (P00811 whole entry, looked up): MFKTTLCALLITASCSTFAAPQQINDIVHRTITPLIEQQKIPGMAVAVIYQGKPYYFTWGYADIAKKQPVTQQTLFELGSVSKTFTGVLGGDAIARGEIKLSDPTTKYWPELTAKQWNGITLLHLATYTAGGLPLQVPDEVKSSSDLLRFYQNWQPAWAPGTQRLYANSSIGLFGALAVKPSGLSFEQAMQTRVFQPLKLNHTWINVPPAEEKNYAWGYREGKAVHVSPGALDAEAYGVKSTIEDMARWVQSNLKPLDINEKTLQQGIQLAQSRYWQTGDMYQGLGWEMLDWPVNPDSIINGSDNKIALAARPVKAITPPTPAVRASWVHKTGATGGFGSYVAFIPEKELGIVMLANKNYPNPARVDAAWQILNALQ
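Enzyme, pH 7.0 phosphate. Compound titrations were pre-incubated with AmpC for 15 min at room temperature before nitrocefin (stock 800 uM) addition; product formation was recorded at 480 nm every 20 s for 4 min.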
* hit, by the source's call; ? = inconclusive; & = joins results of further samples; [ ] = remark or other dose. Potency is read from the fitted curve at half-maximal effect. An excerpt; count on the stated rates, not on these rows.

cpd	SMILES	AmpC nodet inh
1	CNS(=O)(=O)c1cccc(C(=O)OC2CCCCC2=O)c1 (stereo unspecified)	-16%
2	O=c1c(-c2ccc(Cl)cc2)nc2cncnc2n1Cc1ccccc1Cl	-14%
3	O=C(c1ccccc1)c1ccc(OCC(O)CN2CCCCC2)cc1 (stereo unspecified)	10%
4	Fc1ccc(Nc2ccnc(-c3ccccc3C(F)(F)F)n2)cc1	24%
5	CN(C)c1ccc(C2NCCS2)cc1 (stereo unspecified)	9%
6	CCS(=O)(=O)c1ccc(O)c(NC(=O)c2cc(OC)c(OC)c(OC)c2)c1	4%
7	O=C(c1ccccc1Cl)N1CCC(c2nc3c(nnn3Cc3ccco3)c(=O)[nH]2)CC1	60%
8	CC(NC(=O)c1ccccc1Cl)C(=O)O (stereo unspecified)	4%
9	CCCN1CCN(C(=O)Cn2c(=O)oc3cc(S(=O)(=O)NCc4ccccc4)ccc32)CC1	37%
10	COC(=O)c1cc2occc2n1Cc1c(F)cccc1Cl	-7%
11	COCCCNC(=O)CSc1nc2ccccc2c(=O)n1CCCC(=O)NCC1CCCO1 (stereo unspecified)	4%
12	Cc1ccc(C)c(N2CC(=O)N(c3cc(C)ccc3C)CC2=O)c1	12%
13	COCCn1c(=O)c(-c2ccc(F)cc2)nc2cnc(Oc3ccccc3)nc21	19%
14	O=C(CCn1nnc2ccccc21)Nc1nnc(Cc2ccccc2)s1	19%
15	COc1ccc(CCN2CNc3c(c(=O)n(C)c(=O)n3C)C2)cc1OC	-2%
16	CCN(CC)S(=O)(=O)c1ccc(N2CCCC2)c(C(=O)OCC(=O)/C(C#N)=C(\C)N)c1	69%
17	CCC(C(=O)NC1CCCCC1)N(CC1CCCO1)C(=O)CNS(=O)(=O)c1ccc(OC)cc1 (stereo unspecified)	91%
18	CNC(=O)NC(=O)COC(=O)CCCOc1ccc(OC)cc1	-5%
19	CCOC(=O)C1CCCN(C(=O)c2cc3c(C)nc4ccccc4c3o2)C1 (stereo unspecified)	129%
20	O=c1c(O)c(-c2cc(O)c(O)c(O)c2)oc2cc(O)cc(O)c12	10µM*
21	CCOC(=O)c1csc(NC(=O)CSc2nnnn2-c2ccc(OC)cc2)n1	9%
22	CC(c1ccccc1F)n1cc(C(=O)NCCc2ccco2)nn1 (stereo unspecified)	7%
23	COc1ccc(C(=O)c2ccc(N(C)C)cc2)c(OC)c1	17%
24	CC(=O)Nc1ccc(S(=O)(=O)N2CCSC2C(=O)O)cc1 (stereo unspecified)	-10%
25	Cc1cccc(CNc2ccnc(-c3cccc(C#N)c3)n2)c1	29%

Looked up one by one from above, five records:
cpd	SMILES	AmpC nodet inh
16	CCN(CC)S(=O)(=O)c1ccc(N2CCCC2)c(C(=O)OCC(=O)/C(C#N)=C(\C)N)c1	69%
21	CCOC(=O)c1csc(NC(=O)CSc2nnnn2-c2ccc(OC)cc2)n1	9%
12	Cc1ccc(C)c(N2CC(=O)N(c3cc(C)ccc3C)CC2=O)c1	12%
11	COCCCNC(=O)CSc1nc2ccccc2c(=O)n1CCCC(=O)NCC1CCCO1 (stereo unspecified)	4%
25	Cc1cccc(CNc2ccnc(-c3cccc(C#N)c3)n2)c1	29%

(cont.)
cpd	SMILES	AmpC nodet inh
26	O=c1[nH]c(=O)n(CCC2=CCCCC2)c(O)c1C=NC1CCN(Cc2ccccc2)CC1	66%
27	Cc1cccn2c(=O)c(C=Nc3ccccc3)c(NCc3ccco3)nc12	28%
28	CC(C)COC(=O)c1cc(=O)[nH]c2ccccc12	-3%
29	CC1=Nn2c(nnc2-c2ccco2)SC1	-8%
30	COc1nc(C)ccc1-c1noc(-c2ccco2)n1	13%
31	O=C(O)c1ccc(Nc2ccnc3cc(Cl)ccc23)cc1O	-8%[5.75 µM]
32	O=C(COc1ccc(-c2nnco2)cc1)N1CCN(S(=O)(=O)c2ccc3ccccc3c2)CC1	99%
33	O=C(c1cccc(Br)c1)N1CCN(C(=O)N2CCCCC2)CC1	39%
34	COc1ccc(N2CCN(c3cc(=O)n(Cc4ccc(F)cc4)c(=O)[nH]3)CC2)cc1	21%
35	CCOC(=O)C1CCCN(c2c(N3CCN(C4CCCCC4)CC3)c(=O)c2=O)C1 (stereo unspecified)	59%
36	COC(=O)c1[nH]c2c(c1C)C(=O)CC(c1cccs1)C2 (stereo unspecified)	?
37	CCCS(=O)(=O)N1CCC(C(=O)NCc2ccccc2Cl)CC1	-8%
38	Cn1cccc1Cc1nnc(SCC(=O)NCC2CCCO2)n1-c1ccc(F)cc1 (stereo unspecified)	134%
39	Cn1cccc1C(=O)N1CCC2(CC1)CN(c1cccc(-c3ccccc3)c1)C2	112%
40	COc1ccc(N(C(=O)Cn2nnc3ccccc32)C(C(=O)NCc2ccco2)c2cccnc2)cc1 (stereo unspecified)	49%
41	CCn1c2ccccc2c2nnc(SCC(=O)OCN3C(=O)c4ccccc4C3=O)nc21	-4%
42	CN(C)S(=O)(=O)Nc1ccccn1	4%[5.75 µM]
43	C=C(C)CSc1nnc(-c2cccc(Cl)c2)n1N	11%
44	O=C(NCCCN1CCN(c2ccccc2F)CC1)C1CCN(S(=O)(=O)c2cccs2)CC1	100%
45	NC(=O)CSC1=Nc2ccccc2C2=NC(CCC(=O)NCc3ccc(F)cc3)C(=O)N12 (stereo unspecified)	3%
46	CCC(C)(C)n1nnnc1C(c1cccc(C#N)c1)N1CCN(c2cc(C)ccc2C)CC1 (stereo unspecified)	41%
47	CCSc1ccccc1C(=O)NCc1ccc2c(c1)OCO2	4%
48	Cc1ccc2nc(NC(=O)CN(C)S(=O)(=O)c3ccc(Br)s3)sc2c1	-22%
49	COc1ccc(C2=NCC(=O)N(CC(=O)NCc3ccco3)c3sc4c(c32)CCCC4)cc1	79%
50	O=C(Nc1ccc(N2CCCC2)c(Cl)c1)c1ccco1	21%

Later entries.
cpd	SMILES	AmpC nodet inh
51	CSc1ncccc1C(=O)OCC(=O)c1cc2ccccc2o1	-13%
52	C=CCN1C(=Nc2cccnc2)SCC1(O)c1ccc(C)cc1 (stereo unspecified)	21%
53	COc1ccc2nc(SCC(=O)NC(C)(C)C)[nH]c2c1	-4%
54	N[C@H](C(=O)O)c1cc(O)cc(O)c1	4%&-22%&2%
55	CNC(=O)CN(c1ccc(C(C)C)cc1)S(C)(=O)=O	10%
56	CCn1c(=O)c(C)nn2c3ccccc3nc12	6%
57	Cc1cnc(CNc2ncnc3ccc(-c4ccccc4CN(C)C)cc23)cn1	16%
58	CCN(CC)S(=O)(=O)c1ccc2oc(C(=O)N3CCCCCC3)c(C)c2c1	87%
59	COc1cccc(-n2c(C)nc3c(cnn3-c3ccc(Cl)cc3)c2=O)c1	73%
60	COc1ccc(S(=O)(=O)N2CCCC2C(=O)Nc2nccs2)cc1 (stereo unspecified)	-6%
61	COc1ccc(OC)c(C(C)NC(C)=O)c1 (stereo unspecified)	-2%
62	CCCC(c1nnnn1C(C)(C)CC)N(CCCO)Cc1cc2cc(C)cc(C)c2[nH]c1=O (stereo unspecified)	145%
63	Cc1cc(=O)oc2c(N)c(O)ccc12	-2%
64	Nc1nc(NCCc2ccc(O)cc2)nc2nc(-c3ccco3)nn12	4%
65	CCOC(=O)[C@H](CCc1ccccc1)N[C@@H](C)C(=O)N1[C@H](C(=O)O)C[C@H]2CCC[C@@H]21	-3%[12.8 µM]
66	CCCCC(C(=O)O)C(C)CC(=O)Nc1ccn(-c2ccccc2)n1 (stereo unspecified)	-8%
67	COc1cccc(C2C(C(=O)OC(C)C)=C(C)Nc3ncnn32)c1 (stereo unspecified)	11%
68	N#C/C(=C\Nc1ccc2c(c1)OCCO2)c1nc2ccccc2[nH]1	14%
69	CCOC(=O)C1CCN(C(C(=O)Nc2ccc3c(c2)OCCO3)c2ccccc2)CC1 (stereo unspecified)	41%
70	O=C1c2c(O)cccc2Cc2cccc(O)c21	13%
71	NC(=O)C1CCN(C(=O)CN2CCc3ccccc32)CC1	79%
72	CCN(CC)S(=O)(=O)c1ccc(NC(=O)Cn2c(=O)oc3ccccc32)cc1	3%
73	Cc1ccc(C(C)C)c(OCCn2c(=O)oc3ccccc32)c1	16%
74	Cc1ccc(C)c(S(=O)(=O)C(C#N)c2nc3ccccc3nc2N2CC(C)OC(C)C2)c1 (stereo unspecified)	28%
75	CC1C=CCC2C(=O)N(c3cccc(C(=O)N4CCN(c5ccc(F)cc5)CC4)c3)C(=O)C12 (stereo unspecified)	95%

Remaining list, next part
cpd	SMILES	AmpC nodet inh
76	COc1ccc(OC)c(NC=C2C(=O)OC(C)(C)OC2=O)c1	30%
77	C=CCOc1ccc2c(c1)c(S(=O)(=O)c1ccc(C)cc1)cn2COC	23%
78	CN1CCc2ccccc2C1C1CCNCC1 (stereo unspecified)	-6%
79	Cc1nn(CCc2nc(-c3ccco3)cs2)c2[nH]c(=O)cc(C(F)(F)F)c12	2%
80	O=C1CC(N2CCOCC2)C(=O)N1c1cccc(Cl)c1 (stereo unspecified)	-3%
81	CCNc1nc(C)c2cc(Br)c(=O)n(CC)c2n1	0%
82	Cc1sc2nc(SCC(=O)Nc3c(C)n(C)n(-c4ccccc4)c3=O)n(C)c(=O)c2c1C	56%
83	COC(=O)[C@@]1(Cc2ccccc2)[C@H]2c3cc(C(=O)N4CCCC4)n(Cc4ccc(S(C)(=O)=O)cc4)c3C[C@H]2CN1C(=O)c1ccccc1	185%
84	CCOC(=O)C1CCN(C(=O)Cn2cc(C#N)c3ccccc32)CC1	20%
85	CCCC(=O)NC(C)C(c1cccs1)N1CCN(c2ccccc2)CC1 (stereo unspecified)	87%
86	Cc1ccc(SCCC(=O)N2CCCC2)cc1	15%
87	CCOC(=O)COc1ccc(S(=O)(=O)NCc2ccncc2)cc1	11%
88	CCCS(=O)(=O)N1CCCC(C(=O)NCCCN2CCN(c3ccc(F)cc3)CC2)C1 (stereo unspecified)	45%
89	CC(=NCc1ccccc1)C1=C(O)COC1=O	2%
90	Cn1c(=O)c2c(SCC(=O)N3CCCc4ccccc43)nc(C3CC3)nc2n(C)c1=O	17%
91	CC(C)[C@@]1(NC(=O)[C@@H]2C[C@H]3c4cccc5[nH]cc(c45)C[C@@H]3N(C)C2)O[C@]2(O)[C@H]3CCCN3C(=O)[C@H](Cc3ccccc3)N2C1=O	88%[12.8 µM]
92	c1ccc(Cn2ncc3c2ncn2nc(-c4ccncc4)nc32)cc1	1%
93	O=C(c1cnccn1)N1CCC[C@@]2(CCN(Cc3ccncc3)C2)C1	4%
94	Cc1nnc(NC(=O)CSc2nc3c(c(=O)n2CCc2ccccc2)SC(C)C3)s1 (stereo unspecified)	18%
95	COc1ccc(-c2cc(C(=O)NCCc3ccccc3)no2)cc1OC	41%
96	CCOc1ccc(C(=O)Nc2c(C(N)=O)oc3ccccc23)cc1	-5%
97	Cc1ccc(Cn2ccc(NC(=O)c3cc(-c4cccs4)on3)n2)cc1	-16%
98	O=c1c2cc(N3CCOCC3)ccc2[nH]c(=S)n1CCN1CCCC1	4%
99	CC1CCCC(C(=O)OCc2ccccc2)N1 (stereo unspecified)	2%
100	Cc1cnc(C(=O)OCC(=O)NC2CCCCC2)cn1	-4%

A draw from above in order of length of the SMILES, high to low.
cpd	SMILES	AmpC nodet inh
90	Cn1c(=O)c2c(SCC(=O)N3CCCc4ccccc43)nc(C3CC3)nc2n(C)c1=O	17%
79	Cc1nn(CCc2nc(-c3ccco3)cs2)c2[nH]c(=O)cc(C(F)(F)F)c12	2%
97	Cc1ccc(Cn2ccc(NC(=O)c3cc(-c4cccs4)on3)n2)cc1	-16%
89	CC(=NCc1ccccc1)C1=C(O)COC1=O	2%

(cont.)
cpd	SMILES	AmpC nodet inh
101	COCCCNC(=O)C1CC(=O)N(Cc2ccc(OC)cc2)C1 (stereo unspecified)	-4%
102	N#CCCn1c(=O)c(-c2ccccc2)nc2cnc(Nc3ccccc3)nc21	-13%
103	CCN(C(=O)C1CCCCC1)c1nnc(-c2cccnc2)s1	57%
104	CCOC(=O)N1CCC(NS(=O)(=O)c2ccc3c(c2)CCN3C(C)=O)CC1	4%
105	Cn1c(C(=O)N2CCCc3ccccc32)cc2sccc21	26%
106	CC(=O)NC(C)C(=O)OCC(=O)c1ccc(Cl)s1 (stereo unspecified)	-7%
107	Cn1c(=O)c(-c2ccc(F)cc2)nc2cnc(Oc3ccccc3)nc21	-1%
108	CCn1c(SCC(=O)Nc2nnc(C)s2)nnc1-c1ccco1	-1%
109	Nc1nc2ccc(Oc3ccccc3)cc2s1	-13%
110	NCc1ccccc1CC(=O)N[C@@H]1C(=O)N2C(C(=O)O)=C(CSc3nnnn3CC(=O)O)CS[C@@H]12	-15%[12.8 µM]
111	C=CCOC(=O)C1C(=O)CC(C)(O)C(C(=O)OCC=C)C1c1ccc(OCC)cc1 (stereo unspecified)	52%
112	c1ccc(-c2nc(C3CCCCC3)no2)cc1	3%
113	CC[N+](CC)(CCNC(=O)C(=O)NCC[N+](CC)(CC)Cc1ccccc1Cl)Cc1ccccc1Cl	30%
114	Cc1oc2c(c1C(=O)NCc1cc(C(=O)O)co1)CCCC2	3%
115	Cc1ccc(S(=O)(=O)N2CCN(C(=O)CSc3nc4ccccc4c(=O)[nH]3)CC2)cc1	0%
116	COc1ccc(CNC(=O)c2ccc(CN3CCOCC3)cc2)cc1	4%
117	CCOC(=O)c1sc(-c2ccc(OC)cc2)cc1N	6%
118	CC(=O)N1CCc2cc(S(=O)(=O)NCCC(=O)NC3CCN(Cc4ccccc4)CC3)ccc21	6%
119	O=S(=O)(c1ccc(-c2ccccc2)cc1)N1CCOCC1	-1%
120	CC1(C)C2CC=C(/C=N/n3cnnc3)C1C2 (stereo unspecified)	15%
121	CN(C)CCN1C(=O)C(=O)/C(=C(/O)c2ccccc2)C1c1ccccc1F (stereo unspecified)	1%
122	CCC/C=C(\CCC)C(NC(=O)Oc1ccc(F)cc1)c1ccc(C(=O)OC)cc1 (stereo unspecified)	13%
123	O=c1c2ccccc2nc(SCc2nnc(-c3ccccc3Br)o2)n1-c1ccccc1	20µM*
124	O=C(CN(C1CCCCC1)S(=O)(=O)c1ccccc1)NCc1cccnc1	24%
